Screens deposited in PubChem by National Center for Advancing Translational Sciences (NCATS).
D2 potentiator: potentiates the human D2 dopamine receptor allosterically. 0.23% of 360,000 active. potentiation, % (no concentration beside the values). DiscoveRx D2 beta-arrestin cells, luminescence, 90 min; 100% = 57 uM dopamine signal. P14416; active = potentiation of 50% or more; inconclusive = 30% to 50%; inactive = 30% or less;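 further: compound concentration not given in the record; tested on top of an EC20 dose of dopamine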
Target sequence (P14416 whole entry, looked up): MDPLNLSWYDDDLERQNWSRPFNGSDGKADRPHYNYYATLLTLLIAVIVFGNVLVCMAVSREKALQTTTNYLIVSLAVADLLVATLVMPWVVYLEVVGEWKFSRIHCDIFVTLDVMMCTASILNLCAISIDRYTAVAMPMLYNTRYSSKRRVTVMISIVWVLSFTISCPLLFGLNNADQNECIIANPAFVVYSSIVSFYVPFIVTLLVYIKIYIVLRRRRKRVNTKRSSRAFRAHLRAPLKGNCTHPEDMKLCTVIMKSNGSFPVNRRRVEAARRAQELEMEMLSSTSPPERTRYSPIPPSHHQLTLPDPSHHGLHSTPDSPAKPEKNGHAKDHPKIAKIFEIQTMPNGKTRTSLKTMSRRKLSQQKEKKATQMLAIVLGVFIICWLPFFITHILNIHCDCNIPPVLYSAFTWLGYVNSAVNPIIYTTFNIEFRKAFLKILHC
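PathHunter beta-arrestin assay in DiscoveRx D2 cells. Compounds were added with an EC20 of dopamine (50 nM final) for 90 min at 37 deg C. Luminescence was read 1 h after detection reagent, with 57 uM dopamine as the EC100 control.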
TRPML1 agonist: human mucolipin-1 channel agonism; Q9GZU1; TRPML1-expressing cells, Ca2+ dye fluorescence, FDSS; host cell line not named in the record; reference of the full effect not given here; activation, % (no concentration beside the values); 0.12% of 410,000 active; in the data active = activation above about 50%; inconclusive = about 30% to 50%; inactive = below about 30%; further: 0% is about no effect; the text of the record puts the active cut at 80%
Target sequence (Q9GZU1 whole entry, looked up): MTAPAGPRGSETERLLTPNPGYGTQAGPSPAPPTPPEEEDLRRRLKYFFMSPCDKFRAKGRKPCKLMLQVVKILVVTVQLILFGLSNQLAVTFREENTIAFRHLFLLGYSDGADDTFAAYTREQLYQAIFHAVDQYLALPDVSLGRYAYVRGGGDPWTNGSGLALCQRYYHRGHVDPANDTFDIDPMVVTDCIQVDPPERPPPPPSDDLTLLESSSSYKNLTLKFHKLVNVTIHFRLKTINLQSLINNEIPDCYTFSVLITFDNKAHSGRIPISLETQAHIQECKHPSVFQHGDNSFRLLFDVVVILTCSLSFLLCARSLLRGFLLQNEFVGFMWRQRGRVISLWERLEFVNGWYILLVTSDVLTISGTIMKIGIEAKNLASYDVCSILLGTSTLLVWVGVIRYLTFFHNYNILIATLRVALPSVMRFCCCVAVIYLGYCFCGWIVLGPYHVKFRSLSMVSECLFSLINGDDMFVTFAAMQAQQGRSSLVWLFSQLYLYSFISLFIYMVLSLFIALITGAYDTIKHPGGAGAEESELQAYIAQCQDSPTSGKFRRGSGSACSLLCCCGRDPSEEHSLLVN
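Kinetic FDSS Ca2+ read in Tet-induced TRPML1-DL cells (ABD Ca8 dye plus quencher, 45-90 min RT loading): baseline, then compound, then 110 s agonist window; EC80 agonist 54-4 at 4uM final added afterwards for a 110 s antagonist window.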
Six1-Eya2 blk: Six1/Eya2 interaction inhibition; Q15475+O00167; AlphaScreen GST-Six1/His-Eya2 binding, biochemical; active compounds read low; control for the full effect not named in the record; activity change, % (test concentration not listed); 0.56% of 360,000 active; in the data active = activity change below about -65%; inconclusive = about -30% to -65%; inactive = above about -30%; further: on the % scale 0 is the no-effect control and ±100 the full control effect
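AlphaScreen luminescence read after one hour at 37 °C in darkness. Pin-transferred compounds met GST-Six1 and His-Eya2 protein (5X stock 250 nM/500 nM) plus glutathione donor and Ni-chelate acceptor beads (5X, 50 ug/mL).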
D2 agonist: agonists of human D2 dopamine receptor (beta-arrestin); AID 624465; activation, % (test concentration not listed); DiscoveRx PathHunter D2 beta-arrestin, luminescence, 90 min; 100% = 57 uM dopamine signal; 0.084% of 360,000 active; in the data active = activation above about 40%; inconclusive = about 15% to 40%; inactive = below about 15%; further: compound concentration not given in the record; the text of the record calls up to 30% inactive
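Agonist mode: compounds alone added to overnight-plated D2 PathHunter cells for 90 min at 37 C, with 57 uM final dopamine (EC100) defining full response. Beta-arrestin recruitment detected by chemiluminescent reagent, read after 1 h at ambient temperature.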
PINK1 expr mod: modulators of PINK1 expression; Potency, µM (doses to about 76.6 µM), inactives show at the top dose activation (PINK1 increase), usual class: activators; 0.2% of 410,000 active; PINK1 immunofluorescence, high-content cytometry, 24 h; active = well fitted activation curve with a large enough effect; inconclusive = small, poorly fitted or top-dose-only effect; inactive = flat fitted curve, though single readings scatter; cell line not stated here;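 further: potency means the concentration at half of the fitted maximal effect; % of control where 0% means no effect; nearly all actives have a fitted effect of over 65% in size; a mitochondrial uncoupler was the plate control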
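Stable cell line, 250 cells/well, 12 h attachment; compounds pinned at 5 concentrations, 24 h; CCCP control. Fixed with nuclear dye, primary antibodies 12 h at 10 degrees C, secondary plus cell stain; laser-scanning cytometer read.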
TRPML1 blocker: inhibitors of human TRPML1 channel. AID 624415. TRPML1-inducible cells, Ca2+ dye fluorescence, FDSS; active compounds read low; inhibition of EC80 agonist-evoked calcium signal. Q9GZU1. 0.02% of 390,000 active. activity change, negative = inhibition, % (test concentration not listed); in the data active means activity change below about -50%; inconclusive means about -30% to -50%; inactive means above about -30%;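 further: stimulus is agonist 54-4 at its EC80 concentration; on the % scale 0 is the no-effect control and ±100 the full control effect; compound concentration not given in the record; the text of the record puts the active cut at -80%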
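TRPML1-DL cells, Tet-induced overnight (~16 h, 37 °C) at 1,500 cells/well, were loaded with Ca8 no-wash dye plus quencher for 45-90 min at room temperature. Compounds were pinned during FDSS kinetic reading; agonist 54-4 at EC80 (4 uM final) then added.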
* = called active by the depositor; ? = inconclusive; / = no result given; & = joins results of further samples; [ ] = dose if it differs, or a comment.

A first look (two entries):
SMILES	D2 potentiator	TRPML1 agonist	Six1-Eya2 blk	D2 agonist	PINK1 expr mod	TRPML1 blocker
O=C(Nc1cccnc1)OC1CCCC1	-3	-0.5	11	-7.5	-0.8%	-10
Cc1onc(-c2ccc(Cl)cc2)c1-c1ccnc(SCC(=O)Nc2cc(Cl)cc(Cl)c2)n1	0	1.6	2	5.5	-0.2%	11

Results, from the start:
SMILES	D2 potentiator	TRPML1 agonist	Six1-Eya2 blk	D2 agonist	PINK1 expr mod	TRPML1 blocker
O=C(Nc1cccnc1)OC1CCCC1	-3	-0.5	11	-7.5	-0.8%	-10
Cc1onc(-c2ccc(Cl)cc2)c1-c1ccnc(SCC(=O)Nc2cc(Cl)cc(Cl)c2)n1	0	1.6	2	5.5	-0.2%	11
CN(Cc1ccccc1)C(=O)CN(c1ccc(F)cc1)S(=O)(=O)c1ccc2c(c1)OCCO2	2	0.4	-4	-3.8	0.8%	37
CCC(OCC(O)CN1CCN(CCN2C(=O)c3cccc4cccc(c34)C2=O)CC1)c1ccccc1 (stereo unspecified)	-26	3.7	-23	0.8	0.1%	9
COc1ccc(OC)c(CCNC(=O)CC2Oc3ccccc3NC2=O)c1 (stereo unspecified)	-2	-0.6	-9	-5.9	0.6%	3
O=C1C(c2cccc(Br)c2)N(CCc2ccccc2)C(=O)CN1C1CCCCC1 (stereo unspecified)	/	2.0	/	/	0.3%	-11
Cc1cc(C)n2c(Nc3c(C)cccc3C)c(CC(C)C)nc2n1	/	-0.2	0	/	0.2%	/
CCOc1ccc2nc(Cl)c(C3CC(c4ccccc4)=NN3C(=O)CCC(=O)O)cc2c1 (stereo unspecified)	/	-0.1	/	/	1.4%	5
Cc1ccc(S(=O)(=O)N2CCN(C(=O)C(C)Cn3cncn3)CC2)cc1C (stereo unspecified)	-4	-0.8	3	-1.2	-1.0%	-3
COc1cccc(C(C(=O)NC(C)(C)C)N(Cc2ccc(F)cc2)C(=O)CCC(=O)Nc2cc(C)on2)c1OC (stereo unspecified)	-7	0.8	1	-2.0	1.8%	3
O=C(CCn1ccc2cc(S(=O)(=O)N3CCCC3)ccc21)NCc1ccccc1F	-9	0.4&-0.2	6	-0.2	2.5%&0.2%	-20&16
Cc1cccc(Nc2c([N+](=O)[O-])ccc3nonc23)c1C	-7	1.4	-21	-0.8	0.4%	-9
COc1ccc(NC(=O)c2ccccn2)cc1S(=O)(=O)N1CCOCC1	-9	1.7	-18	-0.2	-1.3%	-2
COCC(O)CSc1c([N+](=O)[O-])nc(C)n1Cc1ccc(OC)c([N+](=O)[O-])c1 (stereo unspecified)	14	-0.9	-4	-3.3	0.1%	14
Cn1c(=O)c2ccccc2n2c(CCl)nnc12	-3	-0.3	-4	3.0	0.6%	10
O=C(O)CCC(=NNC(=O)c1cccc(S(=O)(=O)N2CCCCC2)c1)c1ccccc1	1	3.4	-1	8.3	1.6%	28
Cc1cccc(N(Cc2ccccc2)C(=O)c2cc(S(=O)(=O)N3CCOCC3)ccc2F)c1	-2	2.4	-15	1.3	-0.5%	-5
Cc1ccc(NC(=O)c2cc(S(=O)(=O)N3CCOCC3)cn2C)cc1F	-5	0.5	1	1.4	0.9%	-8
O=C(NC1CCCC1)c1ccc(CSc2nc3cccnc3n2Cc2cccc(F)c2)cc1	/	0.6	/	/	1.3%	35
CCCCCNC(=O)c1ccc2c(=O)n(CCOC)c(=O)[nH]c2c1	-4	-0.3	-3	-0.2	0.3%	-10
CN(C)C(=O)COn1c(SCC(=O)N(C)C)nc2ccccc2c1=O	3	-1.1	-3	-6.0	2.0%	12
COc1cc(NC(=O)C2(C)CCN2C(=O)C(C)C)cc(OC)c1OC (stereo unspecified)	10	-0.7	-1	2.0	0.6%	/
CN1CCN(Cc2nc3ccccc3c(=O)n2Cc2nc(-c3ccc4ccccc4c3)cs2)CC1	0&-18	-0.6&2.1	-11&-18	?	-1.9%&-3.4%	15&1
COc1ccc(S(=O)(=O)N2CCN(C)CC2)cc1C(=O)Nc1ccccc1	1	-0.5	-1	-0.4	1.0%	-8
CSc1ncccc1C(=O)OCC(=O)NC1CCC(C)CC1 (stereo unspecified)	-1	-0.8	-1	3.6	0.6%	-4
Cc1cc(N2C(=O)C(O)=C(C(=O)c3cc4ccccc4o3)C2c2ccc([N+](=O)[O-])cc2)no1 (stereo unspecified)	3	-0.8	-4	3.5	1.5%	20
Cc1cc(NS(=O)(=O)c2ccc(N)cc2)no1	-8	0.6	8	-8.2	0.6%	-2
Cc1ccc(S(=O)(=O)N(CCCN2CCCC2=O)Cc2cc3c(C)ccc(C)c3[nH]c2=O)cc1	1	-0.4	2	0.8	-0.7%[38.3 µM]	-9
COc1cccc(N2CCN(CC(=O)c3c(C)[nH]c4ccccc34)CC2)c1	-14	1.1	-16	-1.7	1.6%[38.3 µM]	-3
CCCN(CCC)S(=O)(=O)c1ccc(C(=O)N2CC3CCC(CC3)C2)cc1	0	0.0	4	-8.3	1.1%	10
NNC(=O)CN1CCCc2ccccc21	-6	0.8	1	2.0	2.9%	1
CC(=O)[C@@H]1[C@@H](C(=O)c2ccccc2)[C@]2(C(=O)Nc3ccccc32)[C@H]2C=Cc3cc(F)ccc3N12	-4	0.4	-11	-2.1	-1.6%	2
CC(C(=O)OCC(=O)c1cccc([N+](=O)[O-])c1)N1C(=O)C2C3CCC(C3)C2C1=O (stereo unspecified)	-14	4.9	2	-11	1.5%	9
Cc1cc(C(=O)Nc2ccc(Cl)cc2)on1	-24	0.7	6	5.9	2.3%	11
COc1ccc(CC(=O)N(C)Cc2ccc(Cl)cc2)cc1S(=O)(=O)N1CCOCC1	-1	0.1	8	-1.1	2.4%	-1
O=C(CN1CCOCC1)Nc1nc2ccc(F)cc2s1	5	0.9	8	-2.3	-0.1%	14
COc1ccccc1C(=O)Nc1nc2ccccc2[nH]1	-7	-0.2	-15	-3.9	-0.1%	-9
Cc1nn(Cc2ccc(Cl)cc2Cl)c(C)c1NC(=O)NC12CC3CC(CC(C3)C1)C2	-11	-1.3	-8	-2.0	0.8%	-3
CCOc1ccc(Nc2nc(C)c(NC(=O)c3cccc(F)c3)c(Nc3ccc(OCC)cc3)n2)cc1	/	1.5	/	/	?	28
COc1ccccc1N1CCN(C(=O)C(=O)c2c[nH]c3ccccc23)CC1	-16	0.2	-13	-6.0	0.7%	7
Cc1ccc(NC(=S)N2CCN(c3ncccn3)CC2)c(C)c1	27	0.7	-7	-0.8	8.1%	-8
CC1C(=O)N(Cc2cn(Cc3ccco3)nn2)CCS(=O)(=O)N1Cc1ccc(-c2cccc(CO)c2)cc1 (stereo unspecified)	/	/	-1	0.6	1.8%	/
COc1cccc2cc(-c3nnc(SCC(=O)NCc4ccccc4)n3C)oc12	-10	2.0	1	0.8	-1.3%[38.3 µM]	35
CC1(C)OC(=O)C2=C(C[C@@H](CCc3ccccc3)O[C@@H]2c2ccc(F)cc2)O1	/	4.1	1	/	0.6%	/
COc1cc(OC)cc(-c2cc3cc4c(cc3cn2)OCO4)c1	-2	1.5	-10	-2.8	3.0%	34
CCOc1cc(N2CCOCC2)c(OCC)cc1NC(=O)[C@H](C)N1C(=O)C2CC=CCC2C1=O (stereo partly specified)	-4	3.5	1	-16	1.6%	8
CN(Cc1ccccc1)C(=O)[C@@H]1CCCN1C(=O)[C@@H]1CCCN1C(=O)c1ccccc1	/	-0.6	6	/	0.0%	/
COc1ccccc1-n1nnnc1SCC(=O)Nc1oc(C)c2c(C)n[nH]c(=O)c12	-18	1.6	-7	-6.5	-3.3%	3
O=C(O)C1CCN(C(=O)CSc2nc3cc(Cl)ccc3c(=O)n2Cc2ccccc2)CC1	13	2.4	-11	6.5	0.7%	7
O=[N+]([O-])c1cc(S(=O)(=O)N2CCCC2)ccc1NN=C1CCCCC1	0	0.4	4	-5.5	16%	0
COc1ccc(OC)c(C2=Nn3c(nnc3C3CCCCC3)SC2)c1	-3	2.7	-5	0.4	2.4%	0
CCCN1CNC(=S)N(c2cccc(C)c2)C1	-6	0.5	5	0.2	-0.5%	9
CCCCN(CC)CCCNC(=O)CC1Nc2ccccc2NC1=O (stereo unspecified)	-7	0.1	1	9.1	-1.9%	-15
CCc1ccc(S(=O)(=O)n2c(C)nc3ccccc32)cc1	-1	0.6	5	8.2	1.0%	7
CCCCc1n[nH]c2c1/C(=N/OCC)CC(C)(C)C2	1	1.1	-1	5.5	8.1%	8
O=C(CN1C(=O)CC(c2ccco2)Sc2ccccc21)Nc1ccccc1F (stereo unspecified)	-1	-0.1	-11	2.2	5.8%	-6
COC(=O)c1ccccc1NC(=O)COC(=O)[C@H](C)NC(N)=O	-5	-0.1	6	-0.8	1.6%	3
O=C(COc1ccc2c3c(c(=O)oc2c1)CCC3)Nc1ccccn1	-4	0.5	6	-2.7	1.4%	-15
COc1ccc(C2=Nc3ccc(F)cc3NC(c3cccc(C(F)(F)F)c3)=N2)cc1	/	2.5	/	/	15%	9
CC(CNC(=O)c1cccc(Br)c1)n1cncn1 (stereo unspecified)	1	-0.1	3	0.0	0.3%	6
Later entries.
SMILES	D2 potentiator	TRPML1 agonist	Six1-Eya2 blk	D2 agonist	PINK1 expr mod	TRPML1 blocker
O=C1CC(=O)N(Cc2ccco2)C(=S)N1	-10	0.7	?	-4.9	0.9%	12
O=C1CCN(CCCN2CCC(=O)NC2=S)C(=S)N1	-9	0.4	2	-4.5	0.4%	25
COc1ccccc1CN(C)CC(=O)Nc1ccc(Cl)cc1F	-2	1.2	15	-0.2	26%	4
Cc1nc(-c2cc(C#N)c(Sc3ccc(Cl)cc3Cl)nc2C)cs1	-9	2.1	8	1.3	12%	30
O=C(N1CCOCC1)N1CCN(CC(O)COc2ccc3ccccc3c2)CC1 (stereo unspecified)	-13	0.8	8	-1.0	-1.6%	-5
Cc1cccc(NS(=O)(=O)c2cc3c(cc2C)n(C)c(=O)c(=O)n3C)c1	0	-0.1	5	2.7	0.1%	40
Cc1cc(Nc2ccc3c(c2)OCCO3)c2ccccc2n1	-16	0.5	-15	-4.3	6.7%	0
Cc1ccc(NS(=O)(=O)c2ccc(C(=O)N3CCCCCCC3)cc2)cc1	-15	2.7	-5	2.9	2.4%	20
O=C(COC(=O)c1ccc(OC(F)(F)F)cc1)NCCN1C(=O)CSC1=O	4	-0.7	-3	-1.4	0.1%	-1

Looked up by compound from the list above, three records:
SMILES	D2 potentiator	TRPML1 agonist	Six1-Eya2 blk	D2 agonist	PINK1 expr mod	TRPML1 blocker
Cc1cc(Nc2ccc3c(c2)OCCO3)c2ccccc2n1	-16	0.5	-15	-4.3	6.7%	0
O=C(N1CCOCC1)N1CCN(CC(O)COc2ccc3ccccc3c2)CC1 (stereo unspecified)	-13	0.8	8	-1.0	-1.6%	-5
Cc1nc(-c2cc(C#N)c(Sc3ccc(Cl)cc3Cl)nc2C)cs1	-9	2.1	8	1.3	12%	30

An unsorted share of the library; any-hit rate near 1%.
